Compound activity: PubChem BioAssay, Broad Institute
Env fusion inh: inhibitors of HIV-1 Env-driven cell-cell fusion, primary screen, HeLa-JRFL effector, CEM21 target cells, luciferase | inhibition, % at 12.3 µM | 1.1% of 360,000 active | AID 651610, 2012;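 active = mean replicate inhibition score of at least 50 and every replicate individually at or above 50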;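 note: 0% = plate neutral controls and 100% = maraviroc near 300 nM; one replicate is shown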
Active calls of the source: *; [ ] = another dose, or the depositor's remark.

The opening two entries (preview)
nr	SMILES	Env fusion inh
1	CO[C@@H]1CN(C)C(=O)c2ccc(NC(=O)NC(C)C)cc2OC[C@@H](C)N(S(C)(=O)=O)C[C@H]1C	-26[16.7 µM]
2	C[C@@H]1CN([C@@H](C)CO)C(=O)c2cc(NC(=O)Cc3cn(C)c4ccccc34)ccc2O[C@H]1CN(C)Cc1ccc(-c2ccccc2)cc1	7[16.7 µM]

The listing, repeating the preview:
nr	SMILES	Env fusion inh
1	CO[C@@H]1CN(C)C(=O)c2ccc(NC(=O)NC(C)C)cc2OC[C@@H](C)N(S(C)(=O)=O)C[C@H]1C	-26[16.7 µM]
2	C[C@@H]1CN([C@@H](C)CO)C(=O)c2cc(NC(=O)Cc3cn(C)c4ccccc34)ccc2O[C@H]1CN(C)Cc1ccc(-c2ccccc2)cc1	7[16.7 µM]
3	COc1ccccc1CNC(=O)C[C@@H]1CC[C@H]2[C@@H](COC[C@@H](O)CN2Cc2ccc3c(c2)OCO3)O1	17[16.7 µM]
4	C[C@@H]1CN([C@@H](C)CO)S(=O)(=O)c2ccc(-c3ccc(F)cc3)cc2O[C@H]1CN(C)C(=O)C1CCC1	5[16.7 µM]
5	COc1cccc(C(=O)Nc2ccc3c(c2)OC[C@@H](C)N(C(=O)C2CCCCC2)C[C@@H](C)[C@H](OC)CN(C)C3=O)c1	6[16.7 µM]
6	O=C(Nc1ccc2c(c1)[C@@H]1C[C@H](CC(=O)N3CCCCC3)O[C@@H](CO)[C@@H]1O2)NC1CCCC1	-23[16.7 µM]
7	O=C(N[C@@H](Cc1cccnc1)C(=O)N1CCC[C@H]1C(=O)NCCc1ccccc1Cl)C1CCCC1	-8
8	O=C(C[C@@H]1CC[C@@H]2[C@H](COC[C@H](O)CN2C(=O)c2ccc3c(c2)OCO3)O1)NCCN1CCCCC1	-5[16.7 µM]
9	O=C(NC[C@H]1CC[C@@H]2[C@@H](CN2Cc2cccc(Cl)c2)O1)C1CC1	-1[16.7 µM]
10	C[C@H](CO)N1C[C@H](C)[C@H](CN(C)CC2CC2)OCCCC[C@H](C)Oc2ccc(NC(=O)NC3CCCCC3)cc2C1=O	-28[16.7 µM]
11	CO[C@@H]1CN(C)C(=O)c2cc(NS(C)(=O)=O)ccc2OC[C@@H](C)N(C)C[C@H]1C	0[16.7 µM]
12	O=C(C(=O)N1CCN(C(=O)c2cccs2)CC1)c1cccc(C(F)(F)F)c1	16
13	O=C([C@@H]1[C@@H](CO)[C@@H]2Cn3c(cccc3=O)[C@H]1N2Cc1cccc(Cl)c1)N1CCOCC1	2[16.7 µM]
14	C[C@@H](NC(=O)C[C@@H]1C[C@H]2c3cc(NC(=O)c4cccnc4)ccc3O[C@H]2[C@@H](CO)O1)c1ccccc1	-14[16.7 µM]
15	C[C@H](C(=O)N(C)C[C@@H]1OCc2ccccc2-c2c(n(C)c3ccccc23)C(=O)N([C@@H](C)CO)C[C@H]1C)c1ccccc1	67*[16.7 µM]
16	Cc1cc(C(=O)Nc2ccc3c(c2)C(=O)N(C)[C@@H]2CC[C@H](CC(=O)NC4CCCC4)O[C@H]2CO3)no1	-8[16.7 µM]
17	C[C@@H]1CN([C@H](C)CO)C(=O)Cc2cc(NC(=O)Nc3ccc4c(c3)OCO4)ccc2O[C@@H]1CN(C)S(=O)(=O)c1ccccc1	-28[16.7 µM]
18	CCCN1C[C@@H](C)[C@@H](OC)CN(C)C(=O)c2ccc(NS(=O)(=O)c3cn(C)cn3)cc2OC[C@H]1C	2[16.7 µM]
19	COc1ccc(C2CC(=O)C(c3cc(OC)c(OC)c(OC)c3)=CN2Cc2ccccc2)cc1 (configuration not stated)	5
20	O=C(C[C@H]1CC[C@H]2[C@@H](COC[C@H](O)CN2Cc2cccc(Cl)c2)O1)N1CCCCC1	-33[16.7 µM]

The list goes on; the last five above are carried over.
nr	SMILES	Env fusion inh
16	Cc1cc(C(=O)Nc2ccc3c(c2)C(=O)N(C)[C@@H]2CC[C@H](CC(=O)NC4CCCC4)O[C@H]2CO3)no1	-8[16.7 µM]
17	C[C@@H]1CN([C@H](C)CO)C(=O)Cc2cc(NC(=O)Nc3ccc4c(c3)OCO4)ccc2O[C@@H]1CN(C)S(=O)(=O)c1ccccc1	-28[16.7 µM]
18	CCCN1C[C@@H](C)[C@@H](OC)CN(C)C(=O)c2ccc(NS(=O)(=O)c3cn(C)cn3)cc2OC[C@H]1C	2[16.7 µM]
19	COc1ccc(C2CC(=O)C(c3cc(OC)c(OC)c(OC)c3)=CN2Cc2ccccc2)cc1 (configuration not stated)	5
20	O=C(C[C@H]1CC[C@H]2[C@@H](COC[C@H](O)CN2Cc2cccc(Cl)c2)O1)N1CCCCC1	-33[16.7 µM]
21	Cc1cc(N2CCNC[C@H]2C)ccc1N1CCN(Cc2ccccc2)[C@@H](C)C1	-2
22	O=C(C[C@H]1CC[C@@H]2[C@H](COC[C@H](O)CN2Cc2ccc(Oc3ccccc3)cc2)O1)N1CCc2ccccc2C1	46[16.7 µM]
23	CC(C)NC(=O)N(C)C[C@H]1Oc2c(NS(=O)(=O)c3cccs3)cccc2C(=O)N([C@H](C)CO)C[C@H]1C	7[16.7 µM]
24	C[C@@H]1CN([C@@H](C)CO)C(=O)c2ccccc2-c2ccccc2CO[C@H]1CN(C)Cc1ccncc1	-2[16.7 µM]
25	CCCNC(=O)Nc1ccc2c(c1)C(=O)N(C)C[C@@H](OC)[C@H](C)CN(Cc1ccc(-c3ccccn3)cc1)[C@@H](C)CO2	14[16.7 µM]
26	CCCNC(=O)N1CCC2(CC1)CN(C(=O)CN1CCOCC1)[C@H](CO)c1[nH]c3cc(OC)ccc3c12	-6[16.7 µM]
27	CCOC(=O)C1CSCCS(=O)(=O)N1Cc1ccc(F)cc1 (configuration not stated)	25
28	O=C(O)[C@H](Cc1ccccc1)NC(=O)[C@H]1O[C@@H](n2ccc(=O)[nH]c2=O)[C@H](O)[C@@H]1O	2
29	Cc1ccc(C)c(CN2CCC(CNC(=O)C3CCCN(c4ncnc5c4nc4n5CCCCC4)C3)CC2)c1 (configuration not stated)	-10
30	CNC[C@H]1OCCCC[C@H](C)Oc2ccc(NS(=O)(=O)c3cccs3)cc2C(=O)N([C@H](C)CO)C[C@@H]1C	0[16.7 µM]
31	COc1ccc(CN2C[C@H](C)[C@@H](OC)CN(C)C(=O)c3cc(NC(=O)C4CC4)ccc3OC[C@@H]2C)cc1	4[16.7 µM]
32	Cc1ccc(C2=N/C(=C\c3coc4ccccc4c3=O)C(=O)O2)cc1	-5
33	C[C@@H](NC(=O)C[C@H]1C[C@@H]2c3cc(NC(=O)c4cccnc4)ccc3O[C@@H]2[C@@H](CO)O1)c1ccccc1	7[16.7 µM]
34	O=C(C(=O)N1CCC(CNS(=O)(=O)c2cc(C(F)(F)F)cc(C(F)(F)F)c2)CC1)c1cc2ccccc2o1	-24
35	CCCC(=O)Nc1ccc2c(c1)OC[C@@H](C)N(CCC)C[C@@H](C)[C@@H](OC)CN(C)C2=O	-5[16.7 µM]
36	O=C(NCC1CC1)[C@H]1[C@H](CO)[C@H]2Cn3c(ccc(C4=CCCC4)c3=O)[C@H]2N1Cc1ccccc1F	4[16.7 µM]
37	Cc1ccccc1C1=CC(=O)CC(C)(C)C1=O	2
38	CN1C(=O)c2cc(NC(=O)Cc3cccs3)ccc2OC[C@@H]2O[C@@H](CC(=O)N[C@@H]3CCN(Cc4ccccc4)C3)CC[C@H]21	-14[16.7 µM]
39	CC=Cc1ccc2n(c1=O)C[C@@H]1[C@@H](CO)[C@H](C(=O)NC3Cc4ccccc4C3)N(CC)[C@H]21 (mixture of isomers)	-5[16.7 µM]
40	CN1C(=O)c2cc(NS(C)(=O)=O)ccc2OC[C@H]2O[C@H](CC(=O)N3CCOCC3)CC[C@H]21	20[16.7 µM]
41	CCCN1[C@@H]2c3ccc(C4=CCCCC4)c(=O)n3C[C@H]1[C@H](CO)[C@H]2C(=O)N1CCc2ccccc2C1	6[16.7 µM]
42	C[C@@H]1CN([C@@H](C)CO)C(=O)c2ccccc2-c2ccccc2CO[C@@H]1CN(C)S(=O)(=O)c1ccccc1C#N	-12[16.7 µM]
43	COc1cc(Nc2cc(C)n(-c3ccc(Cl)c(OC)c3)c(=O)c2)ccc1Cl	-4
44	COC(=O)C(CC(C)C)N(Cc1ccc(Br)cc1)S(=O)(=O)CCl (configuration not stated)	30
45	COCC(=O)N[C@@H]1C=C[C@@H](CC(=O)NCc2ccc(Cl)cc2)O[C@H]1CO	-24[16.7 µM]
46	CC(C)[C@H](NS(=O)(=O)c1ccc(F)cc1F)C(=O)N1CCC[C@H]1C(=O)NCCc1ccccc1Cl	0
47	C[C@H](CO)N1C[C@H](C)[C@H](CN(C)C(=O)NC2CCCCC2)Oc2ccc(NC(=O)C3CCCCC3)cc2C1=O	2[16.7 µM]
48	CCS(=O)(=O)Nc1ccc2c(c1)C(=O)N(C)[C@H]1CC[C@H](CC(=O)N3CCN(C)CC3)O[C@@H]1CO2	-5[16.7 µM]
49	O=C(Nc1cc(F)ccc1F)N[C@@H]1CC[C@@H](CC(=O)N2CCc3ccccc3C2)O[C@H]1CO	18[16.7 µM]
50	C[C@H]1CN([C@@H](C)CO)C(=O)c2c(c3ccccc3n2C)-c2ccccc2CO[C@H]1CN(C)C(=O)C1CC1	61*[16.7 µM]
51	CO[C@@H]1CN(C)C(=O)c2ccc(NC(=O)Nc3c(C)noc3C)cc2OC[C@H](C)NC[C@@H]1C	7[16.7 µM]
52	COc1ccc(NC(=O)Nc2ccc3c(c2)C(=O)N([C@H](C)CO)C[C@H](C)[C@@H](CN(C)CC2CC2)OCCCC[C@@H](C)O3)cc1	-7[16.7 µM]
53	O=C(C[C@H]1C[C@H]2c3cc(NC(=O)C4CCC4)ccc3O[C@H]2[C@@H](CO)O1)NC1CCCCC1	-23[16.7 µM]
54	O=C(C[C@H]1CC[C@@H](NC(=O)CC2CC2)[C@H](CO)O1)NCc1ccc(Cl)cc1	-20[16.7 µM]
55	C[C@H]1CN([C@@H](C)CO)C(=O)Cc2cc(NC(=O)CCCCCC(=O)Nc3ccccc3N)ccc2O[C@H]1CN(C)S(=O)(=O)c1ccc(Cl)cc1	13[16.7 µM]
56	CO[C@H]1CN(C)C(=O)c2ccc(NS(=O)(=O)c3ccc(F)cc3)cc2OC[C@H](C)NC[C@H]1C	-8[16.7 µM]
57	O=C(Cc1ccncc1)Nc1ccc2c(c1)[C@H]1C[C@H](CC(=O)N3CCc4ccccc4C3)O[C@@H](CO)[C@H]1O2	7[16.7 µM]
58	O=C(Cc1ccncc1)NCC[C@@H]1CC[C@H](NC(=O)C2CCC2)[C@@H](CO)O1	22[16.7 µM]
59	CO[C@@H]1CN(C)C(=O)c2cc(NC(=O)Nc3ccc(Cl)c(Cl)c3)ccc2OC[C@H](C)NC[C@H]1C	28[16.7 µM]
60	O=C(C[C@H]1CC[C@@H]2[C@H](COC[C@H](O)CN2C(=O)c2ccccc2F)O1)NCc1ccc(Cl)c(Cl)c1	-12[16.7 µM]
61	CC(=O)O[C@@H]1C=C[C@@H](C#Cc2ccc(C(C)(C)C)cc2)O[C@@H]1COC(=O)NCc1ccccc1	3
62	CN(C)CC(=O)Nc1ccc2c(c1)[C@H]1C[C@@H](CC(=O)N3CCCCC3)O[C@@H](CO)[C@H]1O2	0[16.7 µM]
63	CC1(C(=O)NCc2ccccc2)CN(S(C)(=O)=O)CC(=O)N1Cc1ccco1 (configuration not stated)	-4
64	CC(C)(C)[S@@](=O)N1Cc2cc(C(=O)NCCc3ccncc3)nc(-c3cccc(-c4ccncc4)c3)c2[C@H]1CCO	14[16.7 µM]
65	C[C@H]1CN([C@@H](C)CO)S(=O)(=O)c2ccc(C3=CCCCC3)cc2O[C@H]1CN(C)C	-31[16.7 µM]
66	C[C@@H]1CN([C@H](C)CO)C(=O)c2cccc(NS(C)(=O)=O)c2O[C@@H]1CN(C)C(=O)Nc1cccc2ccccc12	-1[16.7 µM]
67	Cc1cc(Nc2cccc(F)c2)cc(=O)n1-c1cccc(F)c1	8
68	CN1CCN(C(=O)C[C@H]2C[C@H]3c4cc(NC(=O)c5ccc6c(c5)OCO6)ccc4O[C@H]3[C@@H](CO)O2)CC1	7[16.7 µM]
69	COc1ccc(S(=O)(=O)N(C)C[C@@H]2Oc3c(NC(=O)Nc4ccc(F)cc4)cccc3C(=O)N([C@@H](C)CO)C[C@@H]2C)cc1	29[16.7 µM]
70	C[C@@H]1CNCCN1c1ccc(N2CCS(=O)(=O)CC2)c(C#N)c1	10
71	COc1cccc(CN2C[C@H]3O[C@H](CNS(=O)(=O)c4cn(C)cn4)CC[C@H]32)c1	1[16.7 µM]
72	COc1ccccc1CNC(=O)C[C@@H]1C[C@@H]2c3cc(N(C)C)ccc3O[C@@H]2[C@H](CO)O1	11[16.7 µM]
73	O=C(Cc1ccncc1)Nc1ccc2c(c1)[C@@H]1C[C@@H](CC(=O)N3CCc4ccccc4C3)O[C@H](CO)[C@@H]1O2	-8[16.7 µM]
74	C[C@@H]1CN([C@@H](C)CO)C(=O)Cc2cc(NC(=O)Cc3cn(C)c4ccccc34)ccc2O[C@@H]1CN(C)C(=O)Nc1ccc(F)cc1	-31[16.7 µM]
75	O=C(NCc1ccc2c(c1)OCO2)[C@H]1[C@H](CO)[C@H]2Cn3c(cccc3=O)[C@@H]1N2Cc1cccnc1	6[16.7 µM]
76	CC(C)c1ccc(NC(=O)C[C@H]2CC[C@H]3[C@@H](COc4ccc(NC(=O)Nc5ccc(F)c(F)c5)cc4C(=O)N3C)O2)cc1	70*[16.7 µM]
77	C[C@@H]1CN([C@@H](C)CO)S(=O)(=O)c2ccc(Br)cc2O[C@@H]1CN(C)Cc1ccc2c(c1)OCO2	10
78	CO[C@@H]1CN(C)C(=O)c2cc(NS(=O)(=O)CC(F)(F)F)ccc2OC[C@H](C)N(CC2CCCCC2)C[C@H]1C	30[16.7 µM]
79	COC(=O)C1=C(C)N(Cc2cccc(C(F)(F)F)c2)C(=NCc2ccc(C(F)(F)F)cc2)NC1c1ccccc1C(F)(F)F (configuration not stated)	34
80	CCCCc1c(-c2ccccc2OC)ncn1Cc1ccc(OC)c(Cl)c1	18

Only part of the results is shown; count on the stated rates, not on these rows.
